High-throughput results (PubChem)
Bead autofluor: flagged as autofluorescent in microsphere protease counterscreen. compound autofluorescence counterscreen, microsphere flow cytometry; stronger effect = higher value. fluorescence intensity (no concentration beside the values). hit rate 3.1% among 360,000. AID 624483;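 active = at least 3 SD above the mean of all compounds, about 16000 in these data; inconclusive = too few beads counted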;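 also: 100 nL of 1 mM stock went into each well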
BJeLR lethal: MLPCN primary cell-based screen for lethality selective to Ras in HRASV12 cells; BJeLR (HRASV12) viability, CellTiter-Glo ATP luminescence, 48 h; reference of the scale not given here; inhibition, % (no concentration beside the values); hit rate 0.17% among 300,000;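 active = replicate mean above 50%; inconclusive = above 50% but judged a plate artefact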;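 also: 50 nL library stock added to about 25 µL; numbers are from one replicate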
PrP UTR inh: inhibition of PrP 5' UTR reporter expression; cell-based PrP 5' UTR mRNA reporter, plate reader; inhibition, % (no concentration beside the values); hit rate 0.35% among 340,000; AID 488862, 2010;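 active = every replicate at 50% or more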;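 also: 0 = median of the neutral control wells; tested in H4 reporter cells; numbers are from one replicate; inactives centre near -14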
Mtb hypoxia inh: PubChem AID 1159583. hit rate 0.1% among 300,000. fluorescence inhibition, % (no concentration beside the values). M. tuberculosis hypoxia-regulated fluorescent reporter, fluorescence;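 active = 35 to 45% if threefold the growth effect, above 45% if 1.5-fold the growth effect; inactive = the rest, general growth blockers included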;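 also: wells of about 50 µL received 100 nL stock; 0% = vehicle wells and 100% = reference inhibitor wells; whole bacteria with a GFP reporter of the hypoxia response; strong numbers were not always called active; many hits fall short of the cut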
Sa ugtP lethal: growth inhibition of ugtP-null S. aureus, primary screen, RN4220 ugtP deletion, OD600 | hit rate 0.54% among 330,000 | growth inhibition, % (concentration not given with the values) | 16 h; some inactives read as strong as hits;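 active = z-score under -3 and OD600 up to 0.15 on both plates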;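 also: plate controls were untreated wells for no effect and antibiotic for full effect; wells of about 80 µL received 100 nL stock; the first replicate is given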
RN4220 kill: growth inhibition of S. aureus RN4220, primary screen, OD600; 16 h; inhibition, % (test concentration not listed); hit rate 0.33% among 330,000; AID 1259311, 2017;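 active = z-score of -3 or lower and OD600 up to 0.18 on both plates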;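 also: plate controls were untreated cells for no effect and reference antibiotic for full effect; stock transfer was 100 nL into about 80 µL; one replicate is shown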
Mtb hypoxia inh growth: second read-out of Mtb hypoxia inh, no call of its own (marks repeat the call); growth inhibition, %; measured here: M. tuberculosis growth (absorbance);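 0% = vehicle and 100% = reference antibiotic; read after six days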
Numbers without * were called inactive; ? = inconclusive; nt = not tested or not shown; & = joins results of further samples.

SMILES | Bead autofluor | BJeLR lethal | PrP UTR inh | Mtb hypoxia inh | Mtb hypoxia inh growth | Sa ugtP lethal | RN4220 kill
COc1ccc(S(=O)(=O)Nc2ccccc2OC)cc1NC(=O)c1cc2ccccc2oc1=O | 2560 | -2.4 | -49.7 | 4.7 | -1.3 | -13.9 | 14.1
CC1(C(=O)N2CCC(CC3CC(c4ccc(Cl)cc4)=NO3)(C(=O)NCC3CCCCC3)CC2)CC1 (stereo unspecified) | 3525 | 4.3 | -20.9 | 0.7 | 1.3 | -6.1 | 0.8
c1ccc(-c2nc3ccccc3s2)nc1 | 4409&3479 | 3.0&2.0 | -93.4&-102.2 | 9.0&15.3 | 14.9&8.7 | 7.9&3.7 | 9.5&10.9
O=C(Nc1ccncc1)C1CCC(CNS(=O)(=O)c2cccc3nsnc23)CC1 (stereo unspecified) | 4205 | 7.6 | 12.2 | 0.0 | -4.9 | 1.6 | 4.6
COCCCNC(=O)Cn1cc(/C=C(\C#N)C(=O)NC2CCCC2)c2ccccc21 | 3611 | -5.2 | -5.7 | -4.6 | 4.5 | 1.2 | 4.1
Cc1ccc(NC(=O)c2c(C)nn(-c3ccccc3)c2Cl)c(C)c1 | 2631 | -9.9 | -16.2 | nt | nt | -0.5 | 2.6
CC(=O)c1ccc(NC(=O)C2CCCN2S(=O)(=O)c2cccs2)cc1 (stereo unspecified) | 6367 | 9.5 | -4.0 | 4.6 | 8.3 | -1.0 | -0.5
O=C(CCc1nnc(-c2ccc3c(c2)OCO3)o1)N(Cc1ccncc1)CC1CCCO1 (stereo unspecified) | 2248 | -7.1 | -22.0 | -2.0 | 1.8 | 3.4 | 2.9
Cc1cc(C)cc(C(=O)N2CCN(Cc3ccc4c(c3)OCO4)CC2)c1 | nt | 3.3 | -13.3 | 11.4 | 0.8 | 5.2 | 0.1
CC(C)c1nc2oc3c(NCC4CCCO4)ncnc3c2c2c1COC(C)(C)C2 (stereo unspecified) | 22704* | -4.4 | 0.1 | 8.0 | 15.3 | 3.4 | 3.2
CCOC(=O)C1=C(COC(=O)COc2ccc(Br)cc2)NC(=O)NC1C (stereo unspecified) | ? | 8.4 | -14.0 | -6.7 | -0.5 | -2.5 | 16.2
COC(=O)c1ccc(CN2CCN(Cc3ccccc3)CC2)cc1 | 10807 | 5.3 | -6.6 | 4.1 | 7.7 | 11.4 | -1.5
Cn1cccc1Cc1nnc(SCC(=O)N2CCc3ccccc32)n1-c1ccc(F)cc1 | 5907 | 4.6 | -7.1 | nt | nt | 7.2 | 2.8
CCSc1nc2ccccc2n1C(=O)/C=C\c1ccc(OC)c(OC)c1 | 2312 | 40.9 | -19.5 | 2.8 | 4.2 | -4.4 | -0.6
Cc1cnc(NC(=O)CN2CCCCC2)s1 | 3516 | 4.8 | -12.1 | 7.9 | 4.2 | 6.1 | 2.9
Cc1cc(C(=O)N2CCC3(CC2)OCCO3)no1 | 4466 | -13.4 | -13.7 | 6.2 | -8.7 | 3.5 | 2.4
CN(C)S(=O)(=O)c1ccc(NC(=O)CN2C(=O)NC3(CCCC3)C2=O)cc1 | ? | -7.4 | -0.7 | -6.4 | 1.6 | 4.5 | 2.5
Cc1c(C(=O)N2CCC3(CC2)OCCO3)oc2ccccc12 | 18025* | 19.7 | 4.7 | 13.3 | 11.6 | 9.1 | 6.0
CCOC(=O)C1CCCCN1Cc1ccc(-c2ccccc2)cc1 (stereo unspecified) | 4145 | 10.4 | -18.6 | 2.8 | 7.5 | 30.5 | 5.3
Cc1ccccc1-n1c(-c2ccco2)nc2ccccc2c1=O | 3735 | -9.7 | -25.3 | nt | nt | 9.4 | 3.2
O=[N+]([O-])c1cc(Br)cc(/C=N/n2cnnc2)c1O | 3273 | 2.9 | -10.8 | nt | nt | nt | nt
NC(N)=NN=C1c2ccccc2-c2ccccc21 | 8153 | 3.0 | nt | 2.2 | 6.6 | 10.2 | 2.1
CCOC(=O)c1sc(/N=C/N(C)C)c(C(=O)OCC)c1C | 9884 | -4.0 | -11.9 | nt | nt | nt | nt
COc1ccc(C(C)=NNC(=O)c2ccc3c(c2)OCO3)cc1OC | nt | nt | nt | -4.7 | -2.5 | 6.5 | 3.6
Cc1cc(-c2ccc(C(C)C)c(S(=O)(=O)N3CCOc4ccccc43)c2)on1 | 5737 | 12.0 | -12.7 | -7.1 | 3.4 | -9.7 | -3.2

The list goes on; the last 7 above are carried over.
SMILES | Bead autofluor | BJeLR lethal | PrP UTR inh | Mtb hypoxia inh | Mtb hypoxia inh growth | Sa ugtP lethal | RN4220 kill
CCOC(=O)C1CCCCN1Cc1ccc(-c2ccccc2)cc1 (stereo unspecified) | 4145 | 10.4 | -18.6 | 2.8 | 7.5 | 30.5 | 5.3
Cc1ccccc1-n1c(-c2ccco2)nc2ccccc2c1=O | 3735 | -9.7 | -25.3 | nt | nt | 9.4 | 3.2
O=[N+]([O-])c1cc(Br)cc(/C=N/n2cnnc2)c1O | 3273 | 2.9 | -10.8 | nt | nt | nt | nt
NC(N)=NN=C1c2ccccc2-c2ccccc21 | 8153 | 3.0 | nt | 2.2 | 6.6 | 10.2 | 2.1
CCOC(=O)c1sc(/N=C/N(C)C)c(C(=O)OCC)c1C | 9884 | -4.0 | -11.9 | nt | nt | nt | nt
COc1ccc(C(C)=NNC(=O)c2ccc3c(c2)OCO3)cc1OC | nt | nt | nt | -4.7 | -2.5 | 6.5 | 3.6
Cc1cc(-c2ccc(C(C)C)c(S(=O)(=O)N3CCOc4ccccc43)c2)on1 | 5737 | 12.0 | -12.7 | -7.1 | 3.4 | -9.7 | -3.2
O=C(CCN1C(=O)c2ccccc2C1=O)C1=NN[C@@H]2C(=O)N(c3cccc(Cl)c3)C(=O)[C@H]12 | 2399 | 6.8 | 1.5 | 6.6 | 7.5 | 8.2 | 2.1
COc1ccc(CC(=O)Nc2ccc(-c3noc(-c4ccc(Cl)cc4)n3)cc2)cc1 | 9975 | 10.9 | -25.6 | 3.3 | 2.2 | -6.0 | 1.0
Cc1ccc(F)cc1NC(=O)N1c2ccccc2NC(=O)CC1C (stereo unspecified) | 6073 | -1.3 | -29.2 | -3.6 | -2.6 | -0.7 | -2.6
O=c1c2cc(Br)ccc2nc(-c2ccc(Cl)cc2)n1O | 3393 | 2.0 | -12.2 | 1.9 | -9.8 | 99.1* | 98.5*
Cn1c(NC(=O)C2CCCC2)cc(=O)n(C)c1=O | 4303 | -10.2 | 2.1 | 3.0 | -1.6 | 9.9 | 4.2
COc1ccc(C(=O)COc2ccc3ccc(=O)oc3c2)cc1 | 4099 | -2.0 | nt | 9.9 | 7.6 | 2.7 | 5.1
N#Cc1c(NC(=O)CSc2ncccn2)oc(-c2ccccc2)c1-c1ccccc1 | 3016 | 7.0 | -90.4 | -2.5 | 7.3 | -19.0 | -11.2
O=C(CNC(=O)c1ccc(Br)o1)NNC(=O)c1n[nH]c(=O)c2ccccc12 | 6547 | nt | -13.5 | 3.2 | -3.6 | 5.6 | 0.2
O=C(CNC(=O)c1ccc(Cl)cc1Cl)OCc1nc2ccccc2s1 | 2939 | 5.8 | -26.6 | 6.5 | 8.5 | 3.8 | 4.3
C[C@@H](O)C1NC(=O)[C@H](CCCCN)NC(=O)c2cc([N+](=O)[O-])cc(F)c2NCCCC[C@@H](C(N)=O)NC1=O (stereo partly specified) | 3473 | -10.6 | -2.4 | nt | nt | nt | nt
Cn1cc(SCC(=O)O)c2ccccc21 | ? | -0.4 | -0.5 | 13.5 | -2.3 | 5.5 | 2.8
CC1(C)COCN1C(=O)c1ccc(Cl)c(Cl)c1 | 2101 | 3.2 | -12.3 | 19.8 | 17.1 | 6.5 | 3.6
CCC(=O)n1nc(-c2cccnc2)nc1NCc1ccc(F)cc1 | 3397 | 3.8 | -3.3 | -2.8 | -10.0 | -0.5 | 0.3
Cc1cc(C)c(C=Nn2c(C)cc(C)c(C#N)c2=O)c(C)c1 | nt | nt | nt | -4.4 | 4.9 | 24.4 | 5.0
NC(=O)CC(NC(=O)c1cccc(Br)c1)c1ccc(NCC2CC2)c([N+](=O)[O-])c1 (stereo unspecified) | 3930 | 7.8 | -15.4 | 20.0 | 4.0 | 8.0 | 1.8
Cc1cc(C)c2c(c1)cc(C)c1nnc(SCC(=O)Nc3ccccc3N3CCOCC3)n12 | 2318 | 2.7 | -15.7 | 13.0 | 10.5 | 3.6 | -1.5
O=C(O)CC(Cn1[nH]nnc1=S)c1ccccc1 (stereo unspecified) | 22296* | 0.8 | -2.3 | 0.6 | 2.0 | -0.8 | 1.5
CC(C)(O)C#Cc1ccc(C(=O)NC(CCCNC(N)=O)C(=O)O)s1 (stereo unspecified) | 4124 | -5.3 | -21.5 | 5.0 | -0.8 | 8.7 | 5.5
Cc1ccc(NC(=S)NCCC2=CCCCC2)cc1 | 3144 | -33.5 | -37.7 | 4.2 | 9.4 | 7.5 | 4.3
CC(NC(=O)c1cccs1)C(c1cccs1)N1CCN(c2ccccc2)CC1 (stereo unspecified) | 11047 | -2.4 | -20.1 | -5.8 | -6.7 | 4.8 | -1.9
Cc1cnc(NC(=O)c2cc3c(s2)CCCC3)s1 | 2722 | 6.5 | 47.0 | nt | nt | 13.7 | 2.2
C=C(C)Cn1c(-c2ccc(OC)cc2)nc2ccccc21 | 2030 | -6.6 | -14.0 | nt | nt | 10.3 | 12.4
O=C(Cc1ccc([N+](=O)[O-])cc1)NCc1ccc2c(c1)OCO2 | 2528 | -6.9 | -3.5 | 6.3 | 8.0 | -3.8 | 2.2
O=C(CCCN1C(=O)c2ccccc2C1=O)N1CCCCC1 | 4870 | -3.1 | -14.7 | nt | nt | 7.4 | -2.1
CC(C)(C)c1ccc(CN2N=C(/C=C/c3ccccc3)CCC2=O)cc1 | 2168 | -0.2 | -21.8 | 8.2 | 0.0 | 10.4 | 6.6

(list continues)
SMILES | Bead autofluor | BJeLR lethal | PrP UTR inh | Mtb hypoxia inh | Mtb hypoxia inh growth | Sa ugtP lethal | RN4220 kill
CSc1nsc(SCc2cnc(C)nc2N)n1 | 12906 | -2.2 | -18.1 | -4.2 | 9.3 | 2.1 | 2.0
Cc1ccc2c(C)c(C(=O)N(Cc3cccs3)C3CCS(=O)(=O)C3)oc2c1 (stereo unspecified) | 3355 | 4.8 | -2.9 | nt | nt | 8.4 | 5.6
CCOc1ccccc1-n1c(SCC(N)=O)nc2ccccc2c1=O | 7953 | -4.2 | -10.0 | 0.1 | -0.2 | 5.8 | 1.8
O=C1N(c2ccccc2C(F)(F)F)O[C@@]1(c1ccccc1)C1CCCC1 | 2899 | nt | 0.8 | -2.8 | -2.0 | 5.5 | -0.2
O=C(NCCCN1CCOCC1)c1cc(-c2ccc(Br)cc2)on1 | 18589* | -1.4 | -5.8 | -1.6 | 3.7 | -9.4 | -3.1
S=C(Nc1ccccc1)N(Cc1ccccc1)Cc1ccncc1 | 4099 | 1.8 | -11.7 | 0.6 | -3.5 | 3.6 | 11.9
CC(C)Cc1nnc(NC(=O)CCC(=O)N2CCC(C)CC2)s1 | 6023 | -7.7 | 3.7 | 6.3 | 2.4 | 4.7 | 4.6
O=C(O)C1CCCCC1C(=O)Nc1nccs1 (stereo unspecified) | 9839 | 4.4 | -25.5 | 4.4 | 11.2 | 2.7 | 3.7
COCC(C)N=C1SCCN1Cc1ccccc1 (stereo unspecified) | 3991 | -15.7 | -24.9 | 2.1 | 8.1 | 0.3 | 0.9
CNc1nc(N)c([N+](=O)[O-])c(NCc2ccccc2)n1 | 9252 | 4.3 | -24.0 | 16.0 | 7.9 | 16.8 | 9.1

Two compounds from above, limited to BJeLR lethal.
SMILES | BJeLR lethal
CSc1nsc(SCc2cnc(C)nc2N)n1 | -2.2
Cc1ccc2c(C)c(C(=O)N(Cc3cccs3)C3CCS(=O)(=O)C3)oc2c1 (stereo unspecified) | 4.8
